From PubChem
TRPV1 potentiator – HTS Assay for Compounds that Act as Potentiators of the Vanilloid Receptor 1. Transient receptor potential cation channel subfamily V member 1 (Homo sapiens), Q8NER1. TRPV1-expressing cells, Fluo-8 calcium influx, capsaicin EC20 potentiation; host cell line not named in the record; control for the full effect not named in the record. potentiation, % at 8.33 µM. hit rate 0.02% among 320,000; active means potentiation above 80%; inconclusive means 30% to 80%; inactive means below 30%; also: 0% is about no effect
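Fluo-8 calcium influx in TRPV1-expressing cells, kinetic read (ex 480/em 520 nm). Compound added and read 3 min for agonist activity, followed by capsaicin at EC20 final and 2 min further read for enhancement.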
CtBP-E1A inh – qHTS Assay for Inhibitors of the CtBP/E1A Interaction; CtBP / adenovirus E1A interaction (AlphaScreen); AlphaScreen GST-E1A/His-CtBP binding, 1536-well; active compounds read low; control for the full effect not named in the record; activity change, % (concentration not given with the values); hit rate 0.49% among 340,000; AID 651724, 2012; in the data active means activity change below about -65%; inconclusive means about -30% to -65%; inactive means above about -30%; also: % is scaled to controls: 0 for no effect and ±100 for the full control effect
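Protein mix (5X: 125 nM each GST-E1A, His-CtBP) was incubated with pinned compound 2 h at 37 deg C in dark, in 50 mM Tris pH 8.0 buffer with 300 mM NaCl. Glutathione donor and nickel acceptor beads followed; AlphaScreen signal read after 1 h.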
Six1-Eya2 inh – qHTS Assay for Inhibitors of the Six1/Eya2 Interaction; AlphaScreen GST-Six1/His-Eya2 binding, biochemical; active compounds read low; control for the full effect not named in the record; activity change, % (test concentration not listed); hit rate 0.56% among 360,000; AID 651725, 2012; in the data active = activity change below about -65%; inconclusive = about -30% to -65%; inactive = above about -30%; also: % is scaled to controls: 0 for no effect and ±100 for the full control effect
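Homogeneous AlphaScreen proximity assay pairing GST-Six1 with His-tagged Eya2 (added as 5X mix: 250 nM and 500 nM) in 50 mM Tris pH 8.0, 300 mM NaCl, 1 mM TCEP. Glutathione donor and nickel acceptor beads; 1 h, 37 °C, dark.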
D2 PAM – Beta-Arrestin HTS for Positive Allosteric Modulators of the Human D2 Dopamine Receptor: Potentiators | D(2) dopamine receptor (Homo sapiens), P14416 | DiscoveRx D2 beta-arrestin cells, luminescence, 90 min; 100% = 57 uM dopamine signal | potentiation, % (no concentration beside the values) | hit rate 0.23% among 360,000 | AID 624464, 2012; active = potentiation of 50% or more; inconclusive = 30% to 50%; inactive = 30% or less;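 also: compound concentration not given in the record; tested on top of an EC20 dose of dopamine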
Target sequence (P14416 whole entry, looked up): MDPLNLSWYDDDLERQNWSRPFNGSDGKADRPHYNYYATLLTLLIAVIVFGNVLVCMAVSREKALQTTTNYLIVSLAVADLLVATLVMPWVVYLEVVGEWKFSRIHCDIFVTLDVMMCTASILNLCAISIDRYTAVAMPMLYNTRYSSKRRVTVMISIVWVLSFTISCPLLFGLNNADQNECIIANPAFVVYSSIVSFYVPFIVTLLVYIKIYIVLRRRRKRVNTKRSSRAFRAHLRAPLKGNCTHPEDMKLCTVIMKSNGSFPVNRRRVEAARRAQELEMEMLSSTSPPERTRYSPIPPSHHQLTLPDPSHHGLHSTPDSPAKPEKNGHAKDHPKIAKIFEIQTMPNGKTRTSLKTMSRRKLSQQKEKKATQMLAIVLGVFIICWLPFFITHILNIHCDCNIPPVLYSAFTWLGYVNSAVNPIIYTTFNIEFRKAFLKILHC
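PathHunter beta-arrestin assay in DiscoveRx D2 cells. Compounds were added with an EC20 of dopamine (50 nM final) for 90 min at 37 deg C. Luminescence was read 1 h after detection reagent, with 57 uM dopamine as the EC100 control.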
D2 ag – Beta-Arrestin HTS for Positive Allosteric Modulators of the Human D2 Dopamine Receptor: Agonists; D(2) dopamine receptor (Homo sapiens), P14416; activation, % (concentration not given with the values); DiscoveRx PathHunter D2 beta-arrestin, luminescence, 90 min; 100% = 57 uM dopamine signal; hit rate 0.084% among 360,000; in the data active = activation above about 40%; inconclusive = about 15% to 40%; inactive = below about 15%; also: compound concentration not given in the record; the text of the record calls up to 30% inactive
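Agonist mode: compounds alone added to overnight-plated D2 PathHunter cells for 90 min at 37 C, with 57 uM final dopamine (EC100) defining full response. Beta-arrestin recruitment detected by chemiluminescent reagent, read after 1 h at ambient temperature.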
Sfp inh – qHTS Assay for Inhibitors of Bacillus subtilis Sfp phosphopantetheinyl transferase (PPTase); Biochemical Sfp PPTase activity, qHTS; Potency, µM, inactives show max response, negative = inhibition, actives largely listed as inhibitors; hit rate 3.5% among 310,000; active = well fitted inhibition curve with a large enough effect; inconclusive = small, poorly fitted or top-dose-only effect, or another doubt; inactive = no such curve, though single readings can be large or run the other way;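 also: the enzyme is Sfp with the accession as filed and its product quenches rhodamine fluorescence; potency is read from the fitted curve at half-maximal effect; 0% = enzyme reaction without inhibitor and -100% = no enzyme wells; top concentration of the series not given in the record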
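With Hepes-Na pH 7.6 buffer containing 10 mM MgCl2, Sfp (15 nM) modified BHQ-2-YbbR (12.5 uM) using rhodamine-CoA (5 uM). Two reads 30 minutes apart at 525/598 nm yielded each well's rate.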
PINK1 modulator – A Quantitative High throughput Screen to Identify Chemical Modulators of PINK1 Expression | PINK1 immunofluorescence, high-content cytometry, 24 h | Potency, µM (highest dose often 76.6 µM), for the others: at the highest dose activation (PINK1 increase), usual class: activators | hit rate 0.2% among 410,000; active = well fitted activation curve with a large enough effect; inconclusive = small, poorly fitted or top-dose-only effect; inactive = flat fitted curve, though single readings scatter; cell line not stated here;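 also: potency is read from the fitted curve at half-maximal effect; % of control where 0% means no effect; nearly all actives have a fitted effect of over 65% in size; a mitochondrial uncoupler was the plate control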
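Cells are seeded, rested 12 hours, then given compound at five concentrations or DMSO for 24 hours. After fixation, blocking and antibody staining, PINK1 amount and mitochondrial localization are scored; CCCP serves as control.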
The depositor's hits bear a star; ? = inconclusive; . = not tested or not shown; [ ] = another dose, or the depositor's remark.

1	CCCOc1ccc2cc(-c3ccccn3)c(=O)oc2c1
2	Cc1cc(C)c(NC(=O)CN(C)C(=O)c2ccc(OCc3ccccc3)cc2)c(C)c1
3	CCOc1ccc(C(=O)NC2CCN(C(=O)N3CCCC3)CC2)cc1
4	COc1ccc(C)cc1NC(=O)c1cccc(C(=O)Nc2cc(C)ccc2OC)c1
5	Cc1ccc(NC(=O)NCC2CC2(Cl)Cl)cc1 (stereo not drawn)
6	COc1ccc(SCCc2ccncc2)cc1
7	COc1ccccc1NS(=O)(=O)c1cc(NC(=O)CN2C(=O)NC3(CCCC3)C2=O)ccc1C
8	Fc1cccc(NC(=S)N2CCN(c3ccccn3)CC2)c1

Screen / compound no.	1	2	3	4	5	6	7	8
TRPV1 potentiator	-11	-1	10	-13	-9	-5	18	7
CtBP-E1A inh	24	-12	4	9	5	-10	?	-3
Six1-Eya2 inh	37	-5	-4	-1	5	2	-24	4
D2 PAM	-2	-10	-13	-2	-14	0	4	-4
D2 ag	-1.9	-7.5	-3.2	0.8	3.6	-1.3	-4.7	-2.0
Sfp inh	11%	.	-2%	22%	16%	-21%	.	13%
PINK1 modulator	0.6%	4.2%	-1.4%	4.7%	0.9%	-0.4%	0.0%	3.0%

9	CC1CCCN(c2cc3c(cc2[N+](=O)[O-])C(=O)N(c2ccccc2)C3=O)C1 (stereo not drawn)
10	CC(C)OC(=O)C(CC(=O)O)N1CCOCC1 (stereo not drawn)
11	Cc1ccc(C(=O)NCCn2cc(SCC(=O)Nc3nnc(C)s3)c3ccccc32)cc1
12	O=C(NC(c1ccc(Cl)cc1)c1ccccn1)C1CCN(CCOc2ccc(Cl)cc2Cl)CC1 (stereo not drawn)
13	O=C(O)c1ccc(NS(=O)(=O)c2ccc(Cl)c(C(=O)Nc3ccccc3[N+](=O)[O-])c2)cc1
14	COc1cc(OC)cc(-c2nnc(SCC(=O)N3c4ccccc4Sc4ccccc43)o2)c1
15	O=C(c1ccncc1)N1CCN(S(=O)(=O)c2cccc(F)c2)CC1
16	COc1ccccc1/C=C/C=N/NC(=O)Cc1cccs1

Screen / compound no.	9	10	11	12	13	14	15	16
TRPV1 potentiator	-15	-6	11	.	3	.	-7	-29
CtBP-E1A inh	-18	10	-4	-25	-12	-1	6	7
Six1-Eya2 inh	?	14	1	-5	-1	4	3	2
D2 PAM	4	13	3	-11	-5	13	16	-8
D2 ag	1.1	2.0	-1.8	-5.9	-4.1	-1.3	-4.0	-3.0
Sfp inh	8%	11%	-16%	.	32%[activator]	.	4%	-26%
PINK1 modulator	15%	0.9%	-1.2%	-1.2%	0.0%	7.8%	-3.3%	-0.6%

17	NS(=O)(=O)c1ccc2nc(NC(=O)c3ccc4ncsc4c3)sc2c1
18	COc1cccc(C(=O)OCC(=O)Nc2sc3c(c2C(N)=O)CCC3)c1O
19	COc1ccccc1CN(C)CC(=O)Nc1cccc2ccccc12
20	COc1ccccc1CNC(=O)CN(C)S(=O)(=O)c1ccc2c(c1)c(=O)n(C)c(=O)n2C
21	CCn1cc(CN2CCC(n3nccc3NC(=O)CCCc3ccccc3)CC2)c(C)n1
22	CCn1c(=O)c2sccc2n(CC(=O)NC2CCCCC2)c1=O
23	CCOC(=O)N1CCN(S(=O)(=O)c2ccc3[nH]c(=O)oc3c2)CC1
24	CCOc1ccc(C2C3=C(CC(C)(C)CC3=O)N(CC(=O)O)C3=C2C(=O)CC(C)(C)C3)cc1OCC

Screen / compound no.	17	18	19	20	21	22	23	24
TRPV1 potentiator	-1	0	18	0	10	-5	2	4
CtBP-E1A inh	1	-9	-1	-9	6	-3	-6	5
Six1-Eya2 inh	-5	-17	-2	0	6	-3	4	7
D2 PAM	-1	-3	-10	-9	-22	4	-8	-3
D2 ag	1.3	-5.7	-2.0	0.9	0.7	-2.1	0.2	-2.0
Sfp inh	13%	.	17%	13%	10%	15%	15%	0%
PINK1 modulator	6.4%	9.7%	1.7%	-0.5%	-0.4%	0.5%	0.4%	1.6%

Reformatted with two lines to a compound: 3 of the compounds above
Below each SMILES – TRPV1 potentiator, CtBP-E1A inh, Six1-Eya2 inh, D2 PAM, D2 ag, Sfp inh, PINK1 modulator
8) Fc1cccc(NC(=S)N2CCN(c3ccccn3)CC2)c1
    7, -3, 4, -4, -2.0, 13%, 3.0%
4) COc1ccc(C)cc1NC(=O)c1cccc(C(=O)Nc2cc(C)ccc2OC)c1
    -13, 9, -1, -2, 0.8, 22%, 4.7%
14) COc1cc(OC)cc(-c2nnc(SCC(=O)N3c4ccccc4Sc4ccccc43)o2)c1
    ., -1, 4, 13, -1.3, ., 7.8%

Carrying on:
25	Cc1ccc(Nc2nc(N)nc(CSc3ncccn3)n2)cc1
26	COc1cccc(NC(=O)C2COc3ccccc3O2)c1 (stereo not drawn)
27	CCCC1=C(C(=O)OCC)C(c2c(C)nn(-c3ccccc3)c2Cl)C(C#N)=C(N)O1 (stereo not drawn)
28	C/C(=N\OCC(=O)O)c1ccc(Cl)cc1
29	CCCN(CCC)C(=O)C1CC(=O)OC12CCOC(C)(C)C2 (stereo not drawn)
30	Cc1[nH]c2ccc(C(=O)OCC(=O)Nc3cccc(S(N)(=O)=O)c3)cc2c1C
31	O=C(Oc1ccc(-c2cnc3ccccc3n2)cc1)c1ccco1
32	Cc1cc(C)n(-c2nc3c(c(=O)[nH]c(=O)n3C)n2Cc2ccc(F)cc2)n1

Screen / compound no.	25	26	27	28	29	30	31	32
TRPV1 potentiator	2	4	2	-16	9	-9	9	10
CtBP-E1A inh	-12	.	4	8	0	.	-1	-2
Six1-Eya2 inh	0	5	0	10	30	-16	-1	1
D2 PAM	2	9	-28	-3	-4	-8	-8	-33
D2 ag	0.5	-2.9	-0.5	-2.8	-3.8	-0.4	0.5	-2.5
Sfp inh	13%	6%	-12%	19%	27%	.	-7%	8%
PINK1 modulator	-4.1%	0.0%	1.5%	3.0%	-1.2%	3.5%	-2.8%	-1.5%

33	CNc1nc(-c2c(C)[nH]c3ccc(OC)cc23)cs1
34	COCCCNC(=S)N1CCN(c2nc(-c3cccc(OC)c3)cs2)CC1
35	COc1cccc(CNC(=O)CN(C)S(=O)(=O)c2cccc3cccnc23)c1
36	CCCCn1c(N)c(N(CC(C)C)C(=O)c2ccc(OCC3CCCO3)cc2)c(=O)[nH]c1=O (stereo not drawn)
37	COc1cc(/C=C2/SC(=S)N(CC3CCCO3)C2=O)ccc1O (stereo not drawn)
38	O=C(O)CCc1ccc(-c2ccccc2)n1NC(=O)c1ccco1
39	CCc1ccc2nc(NC(=O)CN3C(=O)NC4(CCCC4)C3=O)sc2c1
40	COc1cc([N+](=O)[O-])cc2sc(NC(=O)C(C)(C)C)nc12

Screen / compound no.	33	34	35	36	37	38	39	40
TRPV1 potentiator	23	?	-7	11	-8	-13	.	-3
CtBP-E1A inh	-11	.	0	-5	0	-1	-25	6
Six1-Eya2 inh	2	2	15	2	?	0	-11	2
D2 PAM	-2	9	1	-10	-17	-10	-7	2
D2 ag	-2.1	-0.8	3.1	-1.9	-7.7	-1.3	3.0	-1.5
Sfp inh	-5%	-8%	16%	.	?	-20%	.	5%
PINK1 modulator	1.4%	-0.5%	-0.3%	1.0%	5.6%	0.1%	-3.8%	3.2%

41	CCCCn1c(N)c(N(CC(C)C)C(=O)CN(C)S(=O)(=O)c2ccc(C)cc2)c(=O)[nH]c1=O
42	CCOc1cccc(NC(=O)Cc2cccs2)c1
43	O=C(COC(=O)/C=C/c1cccc(C(F)(F)F)c1)Nc1ccc(Cl)cn1
44	Cc1cc2c3c(c1C)C1(C(=O)N3C(C)(C)CC2C)C(C#N)=C(N)Oc2cc(O)ccc21 (stereo not drawn)
45	Cc1ccc(-c2csc(N(Cc3ccccc3)C(=O)COc3ccccc3)n2)cc1
46	CC1CCCN(S(=O)(=O)c2cnc[nH]2)C1 (stereo not drawn)
47	O=C(CCCNS(=O)(=O)c1ccc(Br)cc1)N1CC[C@@]2(O)CCCC[C@H]2C1
48	CCS(=O)(=O)c1nc(NC(C)=O)n[nH]1
49	CC(C)(C)C1C/C(=C/c2ccco2)C(=O)/C(=C/c2ccco2)C1 (stereo not drawn)
50	O=[N+]([O-])c1cccc(-c2nc(-c3ccccn3)no2)c1
51	C/C(Nc1ccc(F)cc1)=C(/C#N)C(N)=O

Screen / compound no.	41	42	43	44	45	46	47	48	49	50	51
TRPV1 potentiator	-4	-9	-2	-2	?	15	3	17	-13	3	2
CtBP-E1A inh	-1	-2	1	-9	8	.	14	-8	10	.	6
Six1-Eya2 inh	12	-7	3	-9	2	3	5	3	?	3	1
D2 PAM	17	-12	-1	1	-8	-9	0	-7	-16	4	-5
D2 ag	-2.3	-4.4	-1.0	-0.6	-2.4	-1.5	-2.9	-0.5	-9.4	1.2	-2.3
Sfp inh	.	15%	.	-11%	-1%	17%	11%	-10%	20µM*	-5%	-3%
PINK1 modulator	-0.8%	-1.3%	0.2%	-5.3%[38.3 µM]	20%	0.0%	2.5%	-1.1%	17%	-0.6%	4.2%
